# 2A StopGo = FMDV 2A StopGo reporter, luciferase signal; human cells with a luciferase reporter of 2A StopGo recoding; control for the full effect not named in the record; Potency, µM (top dose mostly 57.9 µM), for the others: top-dose signal change, negative = less light; 1.2% of 410,000 active; AID 1159524; active = well fitted falling curve with a large enough effect; inconclusive = small, poorly fitted or top-dose-only effect; inactive = no such curve, though single readings can be large or run the other way; tested in HEK293T cells; note: % is set by controls: 0 for no effect and ±100 for the full control effect; nearly all actives have a fitted effect of over 45% in size; luciferase light after 4 h
# Cruzain noTriton = inhibitors of Trypanosoma cruzi cruzain without detergent. purified cruzain, Z-FR-AMC fluorescence, no detergent. Potency, µM, for inactives: max response, negative = inhibition, usual class: inhibitors. 2.3% of 200,000 active. AID 1476; active = well fitted curve in the direction sought with a large enough effect; inconclusive = small, poorly fitted or top-dose-only effect, or another doubt; inactive = no such curve, though single readings can be large; an effect the other way counts as inactive or inconclusive;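 note: plate controls were enzyme without inhibitor for no effect and buffer without enzyme for full effect; nearly all actives have a fitted effect of over 40% in size; top concentration of the series not given in the record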
# Target sequence (P25779 123-467 limits assumed): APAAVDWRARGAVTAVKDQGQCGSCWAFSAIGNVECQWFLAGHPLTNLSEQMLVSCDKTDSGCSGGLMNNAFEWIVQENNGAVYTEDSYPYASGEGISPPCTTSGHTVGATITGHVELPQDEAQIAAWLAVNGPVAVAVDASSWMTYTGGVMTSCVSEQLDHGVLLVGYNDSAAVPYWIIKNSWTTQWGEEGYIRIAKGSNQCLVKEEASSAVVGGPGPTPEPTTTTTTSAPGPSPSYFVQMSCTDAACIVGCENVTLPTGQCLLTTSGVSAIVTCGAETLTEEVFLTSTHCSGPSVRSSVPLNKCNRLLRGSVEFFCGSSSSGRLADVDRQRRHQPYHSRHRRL
#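 Purified cruzain at 1.5 nM, pre-incubated 15 min with compound at room temperature in 100 mM sodium acetate pH 5.5, 5 mM DTT, 0.00005% Triton X-100. Reaction started with 2 uM Z-FR-AMC; AMC fluorescence increase over 60 s gives rate.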
# RE007 growth inh = less growth of the S. pombe RE007 Vpr strain; S. pombe RE007 Vpr strain, BacTiter-Glo ATP luminescence, 24 h; control for the full effect not named in the record; Potency, µM (doses to about 92.2 µM), without a hit: top-dose activity change, negative = less growth; 0.21% of 360,000 active; AID 651644; active = well fitted falling curve with a large enough effect; inconclusive = small, poorly fitted or top-dose-only effect; inactive = no such curve, though single readings can be large or run the other way;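 note: % is set by controls: 0 for no effect and ±100 for the full control effect; nearly all actives have a fitted effect of over 50% in size; the assay follows cell death caused by Vpr and the record does not say whether a fall means rescue or toxicity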
#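 Fission yeast RE007 carrying one integrated HIV-1 vpr copy, seeded at OD 0.01 in PMG+AL medium with 23 nL pinned compound. Grown 24 h at 30 degrees; viability read by BacTiter-Glo luminescence after 5 min.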
# SARS PLP yeast = blocks SARS-CoV papain-like protease in a yeast assay; S. cerevisiae expressing SARS-CoV PLpro, growth rescue; control for the full effect not named in the record; Potency, µM (series often up to 32.9 µM), for the others: at the highest dose activity, positive = growth rescue; 0.19% of 330,000 active; AID 485353; note: 0% is about no effect; nearly all actives have a fitted effect of over 55% in size; growth read by luminescence after 48 h
# Cruzain Triton = cruzain (T. cruzi) inhibition with detergent; P25779; purified cruzain, Z-FR-AMC fluorescence, 0.01% Triton; Potency, µM, inactives show max response, negative = inhibition, most hits filed as inhibitors; 0.43% of 200,000 active; AID 1478; active = well fitted curve in the direction sought with a large enough effect; inconclusive = small, poorly fitted or top-dose-only effect, or another doubt; inactive = no such curve, though single readings can be large; an effect the other way counts as inactive or inconclusive;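 note: plate controls were neutral wells for no effect and buffer without enzyme for full effect; nearly all actives have a fitted effect of over 40% in size; top concentration of the series not given in the record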
#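 Read-out: AMC fluorescence (360 nm excitation, 450 nm emission), four reads over 2 min, first-to-third difference used. Conditions: cruzain 1.5 nM, Z-FR-AMC 2 uM, pH 5.5 acetate, 5 mM DTT, 0.01% Triton X-100.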
# NS1 function inh = influenza NS1 inhibition. Potency, µM (top dose mostly 46.1 µM), without a hit: at the highest dose activity, positive = more growth. AID 2326. 0.4% of 270,000 active. S. cerevisiae slowed by influenza A NS1, growth recovery by OD600; note: actives are rising curves; nearly all actives have a fitted effect of over 50% in size
#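 Compounds were scored for reversing the slow growth caused by influenza A NS1 in S. cerevisiae, measured by optical density at 600 nm. Assay medium contained 2% galactose at pH 6.0; NS1-free yeast of the same strain were the positive control.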
# Marburg entry inh = Marburg virus entry inhibition. Marburg virus pseudotyped entry inhibition, cell reporter; control for the full effect not named in the record; about a third of the inactives were read at about 46 µM. Potency, µM (highest dose often 37.8 µM), for inactives: top-dose activity change, negative = inhibition, most hits filed as inhibitors. 1.8% of 300,000 active. AID 540276; active = well fitted inhibition curve with a large enough effect; inconclusive = small, poorly fitted or top-dose-only effect, or effect the other way; inactive = flat fitted curve, though single readings scatter; tested in HEK293 cells; about a fifth of its hits are not listed in these tables; note: % is set by controls: 0 for no effect and ±100 for the full control effect; luciferase read-out
# LASV entry inh = Lassa virus entry inhibition; Lassa virus pseudotype entry inhibition, cell reporter; control for the full effect not named in the record; Potency, µM (series often up to 37.9 µM), inactives show at the top dose activity change, negative = inhibition, usual class: inhibitors; 1.2% of 300,000 active; active means well fitted inhibition curve with a large enough effect; inconclusive means small, poorly fitted or top-dose-only effect, or effect the other way; inactive means flat fitted curve, though single readings scatter; tested in HEK293 cells; note: % is set by controls: 0 for no effect and ±100 for the full control effect; nearly all actives have a fitted effect of over 50% in size; luciferase read-out
# * hit, by the source's call; ? = inconclusive; nt = no result given; [ ] = another dose, or the depositor's remark. Unless noted, calls come from the whole dose curve; as a rule, active means well fitted rising curve with a large enough effect; inconclusive means small, poorly fitted or top-dose-only effect; inactive means no such curve, though single readings can be large or run the other way. Potency is the fitted concentration of half-maximal effect. Hits appear at their usual frequency; about 4.7% have a hit in one of these screens.
SMILES,2A StopGo,Cruzain noTriton,RE007 growth inh,SARS PLP yeast,Cruzain Triton,NS1 function inh,Marburg entry inh,LASV entry inh
O=C(NC(=S)NNC(=O)c1ccccc1[N+](=O)[O-])c1ccc(Br)cc1,7%,nt,3%,4%,nt,-22%,?,-1%[46.1 µM]
Cc1cc2nc(CSc3ccc(Cl)cc3)cc(=O)n2[nH]1,0%,nt,-1%,0%,nt,4%,12%[46.1 µM],3%[46.1 µM]
CC(=O)N1CCc2c(sc(NC(=O)CN3C(=O)CCC3=O)c2C(N)=O)C1,-1%,-11%,-1%,-13%,-8.3%,-10%,nt,nt
Cc1ccc(C(=O)N/N=C\c2ccncc2)s1,17%,nt,-9%,-2%,nt,-34%,7%[46.1 µM],15%[46.1 µM]
S=C1NCCOCCOCCOCCN1,-5%,-9%,-3%,3%,3.0%,-20%,?,-6%
CCc1ccc(-c2nc(CSCC(=O)NCc3ccco3)c(C)o2)cc1,-30%,nt,38%,-1%,nt,nt,?,?
COc1ccc(-c2nc(Cn3c(SCc4ccccc4F)nc4ccncc43)c(C)o2)cc1,-15%,-1%,3%,?,-3.6%,9%,nt,nt
Nc1c(C(=O)NCc2ccco2)c2nc3ccccc3nc2n1Cc1ccc(F)cc1,0%,0%,30%,-5%,-6.0%,16%,?,-7%
COc1ccc2c(c1)sc1ncc(C(=O)NCc3cccc(C)c3)c(=O)n12,-7%,-4%,nt,nt,-1.0%,nt,10%[46.1 µM],nt
O=C(CSc1nnc(COc2ccc3c(c2)CCCC3)o1)Nc1ccc(F)cc1,-8%,25µM*,3%,4%,2.2%,1%,-2%,-9%
COC(=O)c1ccc2nc(C)cc(Nc3ccc(N(C)C)cc3)c2c1,-16%,8%,-8%,6%,-4.2%,26%,?,?
O=C(O)c1cccc(-c2ccc(/C=N/Nc3ccc([N+](=O)[O-])cc3)o2)c1,-6%,nt,10%,0%,nt,2%,-33%[46.1 µM],-9%
COCCC(=O)N1CCC(Oc2ccc(C(=O)N(C)C3CCCCC3)cc2)CC1,34%[activator],nt,-12%,6%,nt,-11%,nt,nt
C=C(C)CSc1nc2nc(C)c(Br)cc2[nH]1,nt,-1%,nt,-15%,-5.7%,-25%,4%,nt
Cc1ccc(-c2cc(C(F)F)nc(N3CCC(C)CC3)n2)cc1,-22%,-6%,1%,?,3.4%,-9%,?,?
CCCS(=O)(=O)NCc1cn2cccc(C)c2n1,nt,-2%,-9%,-7%,-2.2%,-5%,22%,17%
O=C(/C=C/c1ccc(F)cc1)NC(=S)N1CCN(c2ccccn2)CC1,20%,nt,12%,1%,nt,1%,?,10%[46.1 µM]
O=[N+]([O-])c1cc(C(F)(F)F)ccc1NN=C1CCCC1,13%,5%,3%,-16%,-2.4%,3%,?,14%
O=C(NCCCl)Nc1ccc(Cl)c([N+](=O)[O-])c1,-3%,nt,-21%,-4%,nt,6%,?,-4%
Cc1cc(NC(=O)CSc2nc3c([nH]c4ccccc43)c(=O)n2-c2ccccc2)no1,-19%,20%,nt,nt,-1.2%,nt,nt,-6%[46.1 µM]
COc1ccc(S(=O)(=O)NCC2CCCN(C(=O)CSC)C2)cc1 (stereo not given),24%,nt,8%,0%,nt,9%,nt,nt
C=Cc1ccc(Cn2c(C(=O)O)c(CNCCc3ccccc3)c3ccc(C)cc32)cc1,-18%,?,nt,nt,-13%,nt,nt,4%[46.1 µM]
O=C(Cc1ccccc1)c1nc2ccccc2s1,39%[activator],-13%,?,-23%,-15%,11%,38%,?
CCc1ccc(C(=O)OCC(=O)NC2CCCC2)cc1,0%,nt,1%,1%,nt,7%,15%,?
Cc1cc(C)cc(NC(=O)C2CCCN(C(=O)c3cnn(-c4ccccc4)c3-n3cccc3)C2)c1 (stereo not given),-1%,?,nt,nt,-7.5%,nt,?,-24%[46.1 µM]

# (further entries)
SMILES,2A StopGo,Cruzain noTriton,RE007 growth inh,SARS PLP yeast,Cruzain Triton,NS1 function inh,Marburg entry inh,LASV entry inh
CC1CCN(C(=O)CSc2nc(=O)n3ccccc3n2)CC1,-16%,nt,-18%,4%,nt,nt,-2%,25%
COc1ccc(OC)c(NC(=O)c2cc3c(=O)n4ccccc4nc3n2C)c1,-12%,nt,-14%,6%,nt,nt,?,-7%[46.1 µM]
CSc1cc(-c2ccccc2)n(Cc2c(Cl)cccc2Cl)c(=O)c1C#N,-25%,10µM*,17%,7%,0.2%,0%,0%[46.1 µM],?
CCc1ccccc1NC(=O)CN1CCN(C(=O)CNC(=O)c2ccc(N3CCCC3=O)cc2)CC1,-14%,nt,8%,0%,nt,nt,?,8%
Oc1ccc(Nc2nc(-c3ccccc3F)nc3ccccc23)cc1,0%,nt,19%,0%,nt,1%,nt,nt
C#CCOCCOCCOCCNc1nc(N2CCN(C(=O)[C@H](Cc3ccc(O)cc3)n3cc([C@@H](N)CC(C)C)nn3)CC2)nc(N2CCN(C(=O)[C@H](Cc3cc4ccccc4[nH]3)n3cc([C@@H](N)CC(C)C)nn3)CC2)n1,-2%,nt,5%,-1%,nt,-5%,nt,nt
COc1cc(OC)cc(C(=O)Nc2cc3nn(-c4ccccc4)nc3cc2Cl)c1,27%,-11%,nt,nt,6.8%,nt,?,-4%[46.1 µM]
COCCNC(=O)c1cccc(OC2CCN(Cc3ccc(C(=O)OC)cc3)CC2)c1,-21%,nt,30%,-1%,nt,-2%,?,-1%[46.1 µM]
COc1ccc(C2SCC(C(=O)O)N2C(C)=O)cc1 (stereo not given),5%,-9%,-5%,3%,1.9%,3%,1%,?
COc1ccc(N(C(=O)c2cccc(OC)c2OC)C2C=CS(=O)(=O)C2)cc1 (stereo not given),nt,4%,-3%,2%,4.6%,-9%,1%,3%
COC(=O)c1c(C)oc2ccc(OC(=O)N3CCOCC3)cc12,0%,7%,17%,0%,2.3%,-6%,-9%,1%
CC(=O)Nc1ccc(S(=O)(=O)N2CCN(c3nnnn3-c3ccccc3)CC2)cc1,-14%,nt,24%,-10%,nt,6%,8%[46.1 µM],0%[46.1 µM]
Cc1cc(Cl)ccc1C(=O)C1CCCN(C(=O)c2cccc(N3CCCC3=O)c2)C1 (stereo not given),-14%,nt,14%,-1%,nt,1%,nt,nt
COC(=O)c1c(Oc2nc(OC)cc(OC)n2)cccc1Oc1nc(OC)cc(OC)n1,-8%,?,2%,-7%,-1.2%,-26%,19%,?
COc1ccc(C2NC(=O)N(C)C3=C2C(=O)N(c2ccc(C)cc2)C3)cc1 (stereo not given),-4%,-1%,nt,nt,-1.0%,nt,5%[46.1 µM],-22%[46.1 µM]
CC(C(=O)c1ccc(Br)cc1)[n+]1cccc2ccccc21 (stereo not given),-15%,nt,-10%,-4%,nt,-7%,nt,nt
CC(C)(C)C(=O)Cn1ncc(NC2CC2)c(Br)c1=O,20%,10%,7%,1%,9.9%,14%,-3%,4%
CC1C(=O)C(C)C(c2cc(Cl)ccc2O)NC1c1cc(Cl)ccc1O (stereo not given),-17%,nt,-2%,-10%,nt,-44%,?,-19%[46.1 µM]
CCn1c(=O)n(-c2ccc3c(c2)OCO3)c2nc(-c3ccc(C(C)C)cc3)nc(C(N)=O)c21,5%,-10%,nt,nt,-0.5%,nt,33%[46.1 µM],?
Cc1onc(-c2ccccc2Cl)c1C(=O)OCn1nnc2ccccc2c1=O,nt,-10%,10%,3%,-0.9%,-15%,-30%,1%
CCC(C(=O)NCc1cccnc1)c1ccccc1 (stereo not given),-3%,nt,-10%,0%,nt,2%,0%[46.1 µM],-8%[46.1 µM]
CN(C)c1ncc(C2=C(Cl)C(=O)C(N3CCCC3)=C(Cl)C2=O)s1,?,nt,-9%,nt,nt,nt,?,?
COc1ccc(/C=C2\COc3ccccc3C2=O)cc1OC,-23%,24%,-30%,-81%,-13%,-38%,?,?
Cc1[nH]n(-c2ccccc2)c(=O)c1N=Nc1ccc2c(c1)OCO2,39%[activator],nt,8%,-2%,nt,nt,?,3%[46.1 µM]
CCOC(=O)c1ccc(NC(=O)Cn2cc(C(=O)c3cccs3)c3ccccc32)cc1,-1%,-29%,nt,nt,-3.7%,nt,-18%[46.1 µM],?

# (cont.)
SMILES,2A StopGo,Cruzain noTriton,RE007 growth inh,SARS PLP yeast,Cruzain Triton,NS1 function inh,Marburg entry inh,LASV entry inh
COc1ccc(C(=O)Nc2ccc(C(=O)N3CCCCC3C)cc2)c(OC)c1OC (stereo not given),22%,nt,10%,1%,nt,-15%,8%[46.1 µM],11%[46.1 µM]
COc1ccc(C2(CNC(=O)Cc3ccc(OC)c(OC)c3)CCOCC2)cc1,-17%,12%,-8%,-4%,6.4%,0%,-3%,2%
COc1ccc(OC)c(CCNC(=O)c2ccc3c(c2)c(C)c(C)n3Cc2ccccc2)c1,?,?,nt,nt,-0.4%,nt,nt,18%[46.1 µM]
COc1ccc(-c2noc(CSc3nnc(Cc4ccccc4)n3-c3ccc(F)cc3)n2)cc1,0%,3%,nt,nt,-7.3%,nt,?,?
O=C(NNC(=O)C1CCCCC1)c1cnccn1,24%,-4%,8%,-5%,5.9%,-6%,-10%,0%
CCOc1ccc(CCNS(=O)(=O)c2ccc3c(c2)NC(=O)CC(=O)N3)cc1OCC,-4%,nt,6%,0%,nt,nt,5%,1%
Cc1ccc(COC(=O)CCN=C2NS(=O)(=O)c3ccccc32)cc1,-15%,nt,1%,-2%,nt,nt,?,10%
O=S(=O)(Nc1nc2ccccc2nc1NCCN1CCOCC1)c1cccc(Cl)c1,-12%,18%,-1%,6%,-1.8%,-11%,10%,6%

# Rewritten with tabs: three of the compounds above
smiles	2A StopGo	Cruzain noTriton	RE007 growth inh	SARS PLP yeast	Cruzain Triton	NS1 function inh	Marburg entry inh	LASV entry inh
C=Cc1ccc(Cn2c(C(=O)O)c(CNCCc3ccccc3)c3ccc(C)cc32)cc1	-18%	?	nt	nt	-13%	nt	nt	4%[46.1 µM]
O=C(Cc1ccccc1)c1nc2ccccc2s1	39%[activator]	-13%	?	-23%	-15%	11%	38%	?
CCc1ccc(C(=O)OCC(=O)NC2CCCC2)cc1	0%	nt	1%	1%	nt	7%	15%	?

# Assay outcomes from PubChem BioAssay.
